Choline anaer gr: blocks anaerobic gram-negative growth on choline; Gram-negative bacterium anaerobic choline minimal medium, absorbance growth; active compounds read low; many inactives read as strong as hits in the columns shown; calls only; 55,000 tested, 0.2% active;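 active = growth z-score on choline under -2 at 7 or 20 h with little or no fall on glycerol, limits in tiers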;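 note: stock transfer was 300 nL into about 50 µL; the organism is E. coli; final concentration not given here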
Choline anaer gr early: also measured in Choline anaer gr; calls as there; z-score; measured here: choline growth z-score, timepoint 1;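 score of optical density at 7 h as mean of two plates; lower means less growth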
* hit, by the source's call; i = inactive; & = joins results of further samples. A portion of the library; the hit share may differ from the screen's.

SMILES	Choline anaer gr	Choline anaer gr early
CCCCN(CCCC)S(=O)(=O)c1cc2c(cc1C)NC(=O)CO2	i	-0.99
Clc1cccc(-c2nnc(-c3nc(NC4CCCCC4)c4ccccc4n3)o2)c1	i	-0.65
CCCn1c(=O)c2ccccc2n2c(=O)n(CC(=O)Nc3ccc(F)cc3)nc12	i	-0.71
CCn1c(=O)c(=O)n(CC)c2cc(NS(=O)(=O)c3ccc(OC)cc3)ccc21	i	-1.03
O=C(NC1=C(C(=O)c2ccccc2)N(Cc2ccccc2)S(=O)(=O)c2ccccc21)c1ccccc1	i	-0.08
Cc1c(C)n(-c2ccccc2)c2ncn(CCC(=O)NCCN3CCOCC3)c(=O)c12	i	-0.41
c1ccc2nc(-c3nnc4sc(-c5ccncc5)nn34)ccc2c1	i	0.11
COC(=O)c1ccccc1NC(=O)Cn1cc(-c2nc(-c3ccc(C)cc3)no2)ccc1=O	i	-1.13
COc1ccc(NC(=O)CSc2nnc3ccc(C(=O)Nc4ccc(C)cc4)cn23)cc1	i	-0.69
CCOC(=O)c1c(NC(=O)c2ccccc2C(=O)O)sc2c1CCN(C)C2	i	-0.26
CCOC(=O)c1c(C)[nH]c(C(=O)N2CCC(C(C)C(=O)NCc3ccc(F)cc3)CC2)c1C (stereo unspecified)	i	0.05
O=C(Nc1cccc(Cl)c1)c1cc2ccccn2n1	i	-0.47
O=c1[nH]cnc2c1ncn2C1CCC(CO)O1 (stereo unspecified)	i	0.66
O=C(c1ccccc1)N1CCN(Cc2cc(=O)n3nc(-c4cccc(F)c4)sc3n2)CC1	i	0.25
Cc1cc(N2CCN(c3ccccc3)CC2)n2nc(C)c(-c3ccc(Cl)cc3)c2n1	i	0.09
O=C(NCCc1c[nH]c2ccccc12)c1ccc(NC(=O)N2CCCCc3ccccc32)cc1	i	0.31
COc1ccccc1NC(=O)Cn1c(=O)n(-c2ccc(C)cc2)c(=O)c2c1cnn2C	i	0.81
CC(C)S(=O)(=O)c1ccc(N2CCN(c3ccc(F)cc3)CC2)nn1	i	0.27
Cc1cc(C)n(CC(=O)Nc2ccc(C(C)C)cc2)c(=O)c1S(=O)(=O)c1ccc(Br)cc1	i	0.86
CN(C(=O)CN(C)S(=O)(=O)c1cc2c(cc1Cl)NC(=O)CO2)C1CCCCC1	i	0.95
CN(C)CCNc1nc(Nc2ccc3c(c2)OCO3)c2cnn(-c3ccccc3)c2n1	i	-1.41
Cc1nc(N(C)C)cc(N2CCN(C(=O)c3ccccc3Cl)CC2)n1	i	-0.14
Cc1ccc(S(=O)(=O)N2CCCC(c3nc(-c4ccccn4)no3)C2)cc1 (stereo unspecified)	i	0.29
Cc1cc(C)c(S(=O)(=O)N2CCCC2c2nc(-c3ccccc3)no2)cc1C (stereo unspecified)	i	0.56

Entries of single compounds from above.
`CN(C)CCNc1nc(Nc2ccc3c(c2)OCO3)c2cnn(-c3ccccc3)c2n1` is entered as Choline anaer gr: i; Choline anaer gr early: -1.41
`Cc1nc(N(C)C)cc(N2CCN(C(=O)c3ccccc3Cl)CC2)n1` is entered as Choline anaer gr: i; Choline anaer gr early: -0.14
`Cc1ccc(S(=O)(=O)N2CCCC(c3nc(-c4ccccn4)no3)C2)cc1` (stereo unspecified) is entered as Choline anaer gr: i; Choline anaer gr early: 0.29

More structures.
SMILES	Choline anaer gr	Choline anaer gr early
CCOc1ccccc1N(C)C(=O)C1CCCN(c2ncnc3onc(-c4ccc(F)cc4)c23)C1 (stereo unspecified)	i	0.34
Cc1ccc(-c2ccc(=O)n(Cc3nnc(SCC(=O)N4CCCc5ccccc54)o3)n2)cc1	i	0.38
COc1ccc(CNc2c(C(=O)Nc3ccc(F)cc3)cnc3c2c(C)nn3-c2ccccc2)cc1	i	-0.22
Cn1c(C2CCN(C(=O)c3cc4c(s3)CCCC4)C2)nc2cccnc21 (stereo unspecified)	i	-0.22
O=C(Nc1cccc(Br)c1)c1ccc(Nc2ccnc(-c3ccc(F)cc3)n2)cc1	i	0.26
COCCCNC(=O)Nc1nc2c(s1)CCCCCC2	i	-0.48
Cc1ccc(-c2nnc3ccccc3c2C(=O)N(C)Cc2ccccc2)cc1	i	0.91
O=C(Nc1cccc(Cl)c1)c1nnc(C2CCCN(C(=O)NC3CCCC3)C2)s1 (stereo unspecified)	i	-0.28
Brc1ccc(-c2nn3c(-c4cccnc4)nnc3s2)cc1	i	-0.42
CCn1c(=O)c2c(C(=O)NC3CCCCC3)cc(=O)n(CC)c2n(C)c1=O	i	-0.05
O=C(CCn1nnc2cc(-c3noc(C4CCCC4)n3)ccc21)N1CCCC1	i	0
CCNc1nc(N(C)C)nc(-n2cnc(SC)n2)n1	i	-0.02
CCc1cc(C2CCCN2C(=O)c2c(C)noc2C)on1 (stereo unspecified)	i	0.38
Cc1cc(NC(=O)C(C)C)n(-c2ncnc3c2cnn3-c2ccc(F)cc2)n1	i	-1.31
CC(C)c1nnc(NC(=O)c2cc(=O)c3cc(F)ccc3o2)s1	i	-1.54
COc1ccc(/C=C/c2nc(Cn3cnc(S(=O)(=O)N4CCCCC4)c3)no2)cc1OC	i	0.07
CC(C)CCN[C@H]1CS(=O)(=O)C[C@@H]1S(=O)(=O)c1cccs1	i	-0.58
NCCNS(=O)(=O)c1cccc2c(Cl)cccc12	i	-0.3&-0.19
Cc1ccc(-c2nc(CSCC(=O)N3CC(C)OC(C)C3)no2)cc1 (stereo unspecified)	i	-0.51
CCC(CC)C(=O)NCC1(N2CCN(CC)CC2)CCCCC1	i	0.48
COc1ccccc1NC(=O)N1CCN(c2nc3cccnc3s2)CC1	i	-1.65
COc1ccc(C(=O)N(CCC(=O)N2CCNCC2)CC2CCCO2)cc1 (stereo unspecified)	i	-0.06
CN(C)c1cc(N2CCCC(NC(=O)c3ccoc3)C2)ncn1 (stereo unspecified)	i	0.18
CC1CCC2(CC1)Nc1ccccc1NC2=NCc1ccc(Cl)cc1 (stereo unspecified)	i	0.2

Among those listed so far, these contain a thiophene ring, fused or not.
SMILES	Choline anaer gr	Choline anaer gr early
CCOC(=O)c1c(NC(=O)c2ccccc2C(=O)O)sc2c1CCN(C)C2	i	-0.26
Cn1c(C2CCN(C(=O)c3cc4c(s3)CCCC4)C2)nc2cccnc21 (stereo unspecified)	i	-0.22
CC(C)CCN[C@H]1CS(=O)(=O)C[C@@H]1S(=O)(=O)c1cccs1	i	-0.58

(cont.)
SMILES	Choline anaer gr	Choline anaer gr early
O=C1c2ccccc2C(=O)C1c1ccc(Cl)cc1	i	-0.96
CC(C)NC(=O)N1CCC(N2CCN(Cc3ccc(F)cc3)C(=O)C2=O)CC1	i	-0.31
O=C(NCCc1ccccc1)NCc1nnnn1-c1ccccc1	i	-1.29
Cn1cnc2ccc(-c3noc(-c4ccc(F)cc4)n3)cc21	i	-0.1
N#CC1=CN(c2ccc(Cl)cc2)c2cc(Cl)ccc2S1(=O)=O	i	1.07
CCOCCCNC(=O)C1CCCN(c2ccnc(-c3ccc(F)cc3)n2)C1 (stereo unspecified)	i	-0.3
CCOC(=O)c1[nH]c(C)c(CCC(=O)N2CCCC(C(=O)NCCc3c(C)noc3C)C2)c1C (stereo unspecified)	i	0.63
Cc1ccc2ncc(C(=O)Nc3cccc(F)c3)c(=O)n2c1	i	-0.25
O=S1(=O)CC(O)C(NCc2ccccc2)C1 (stereo unspecified)	i	0.03
CCN(CC)CCNC(=O)c1cc(Nc2ccc(OC)c(OC)c2)nc2ccccc12	i	-1.22
COc1cccc(C(=O)N2CCN(CCc3ccncc3)CC2)c1	i	-1.94
Cc1cc(C2CCCN2Cc2cc(Br)ccc2F)on1 (stereo unspecified)	i	0.2
Cc1nn(C(C)C)c(C)c1-c1cc(C(=O)O)[nH]n1	i	0.5
Cc1cccc(N2CCN(C(=O)Cn3nc(C)c4sc5ccccc5c4c3=O)CC2)c1C	i	1.43
COc1cc(OC)cc(-c2nc3c4ccccc4n(CC(=O)c4c[nH]c5ccccc45)c(=O)n3n2)c1	i	-0.43
Cc1cc(Sc2ccc(NC(=O)Nc3ccc(F)c(Cl)c3)cc2)n2ncnc2n1	i	-0.13
O=C(Nc1cccc(Cl)c1)C(Cc1ccccc1)NS(=O)(=O)c1cccc2cccnc12 (stereo unspecified)	i	0.57
COCCNC(=O)Cn1cnc2c(nc3n2CCCCC3)c1=O	i	0.07
Cc1ccc(N2CC(C(=O)NCc3nnnn3-c3ccccc3)CC2=O)cc1C (stereo unspecified)	i	-0.38
Cn1c(=O)c2sccc2n2c(SCc3ccccc3F)nnc12	i	1.09
COCc1cc(C)nc2sc3c(=O)n(-c4cccc(C)c4)nnc3c12	i	0.85
COc1ccc2cc([C@H](C)C(=O)O)ccc2c1	i	-0.42&-0.37&0.66
Cc1ccc(CNC(=O)c2cccn2-c2nnc(N3CCOCC3)s2)cc1	i	-0.65
O=C1CCS(=O)(=O)N1c1ccc(S(=O)(=O)N2CCCC2)cc1	i	-0.31
Cc1sc(NC(=O)c2ccccc2)c(C(Nc2ccccn2)c2ccc3c(c2)OCO3)c1C (stereo unspecified)	i	1.43
O=C(CN1C(=O)CCc2cc(S(=O)(=O)N3CCCCC3)ccc21)N1CCc2ccccc21	i	-0.34
Cc1nn(C)c(C)c1CCN(C)C(=O)Nc1ccc(F)c(Cl)c1	i	-1.67
CC(C)C(=O)Nc1nnc(SCc2nnc(-c3ccccc3)o2)s1	i	0.16
CCOC(=O)C1CCN(C(=O)CN2CCN(Cc3ccccc3)C(=O)C2=O)CC1	i	-1.67
O=S(=O)(c1cc(-c2nnc(C3CCCC3)o2)co1)N1CCCCC1	i	-1.13
Cc1ccc(S(=O)(=O)c2nc(-c3ccc(F)cc3)oc2N2CCC(C)CC2)cc1	i	0.04
Cn1cc(C(=O)Nc2ccc(F)c(Cl)c2)c2[nH]c(=O)n(-c3ccc(F)cc3)c(=O)c21	i	1.05
O=C1NC(C(=O)O)CS1 (stereo unspecified)	i	0.43
O=C(C1CCN(c2ncnc3c2oc2ccccc23)CC1)N1CCN(c2ccccc2)CC1	i	0.3
CC(C)(C)C(=O)N1CCC(c2cc(N)on2)CC1	i	0.09
Cc1cccc(N2CCN(c3ncc(C(=O)O)cc3NS(=O)(=O)c3cccc(F)c3)CC2C)c1 (stereo unspecified)	i	0.16
CC(C)OC(=O)CSc1nc2c(-c3ccccc3)c[nH]c2c(=O)[nH]1	i	-0.14
CCN1C(=O)c2cc(C(=O)N3CCN(c4ccc(F)cc4)CC3)nn2CC1(C)C(=O)NC1CCCC1 (stereo unspecified)	i	1.17
CC(C)NCC(O)Cn1c2ccc(Cl)cc2c2cc(Cl)ccc21 (stereo unspecified)	i	-5.67
COc1ccc(-c2cc3c(N4CCC(C(=O)O)CC4)nccn3n2)cc1	i	-0.51
CCCCN(CCCC)C(=O)C1CCN(S(=O)(=O)c2c(C)noc2/C=C\c2ccc(OC)cc2)CC1	i	-0.57
Cc1[nH]c(C)c(S(=O)(=O)N2CCC(C(=O)NC3CC3)CC2)c1C(=O)N1CCCCC1	i	0.5
Cc1ccc(C)c(NC(=O)c2cc3c([nH]c2=O)CCCC3=O)c1	i	0.22
Cc1ccc(NC(=O)N2CCN(Cc3ccc4nccnc4c3)CC2)cc1Cl	i	0.37
O=C(NCCc1csc(-c2ccccc2)n1)[C@H]1CCCN1C(=O)c1ccccc1	i	0.75
CCOCCCNC(=O)C1c2c(n(C)c3ccccc23)SCC(=O)N1CCOC (stereo unspecified)	i	-1.55
O=C(NC1CCCCC1)c1nc2ccccc2c(=O)[nH]1	i	-0.12
CCN1C(C(=O)c2ccccc2)=C(OC(=O)C(C)(C)C)c2ccccc2S1(=O)=O	i	0.95
CCn1cnc2cc(NCc3nc4ccccc4n3C)ccc21	i	-0.99
CC(C)CCNC(=O)c1cn(C)nc1S(=O)(=O)N1CCC(C)CC1	i	0.08
CS(=O)(=O)Nc1ccc(-c2noc(CNC(=O)c3ccccc3)n2)cc1	i	-0.93
CCN(CC)CCNC(=O)c1nnc(-c2oc3ccc(C)cc3c2C)o1	i	-0.04
CCn1c(SCc2ccccc2)nnc1-c1ccc2c(c1)OCCCO2	i	0.3
CCCCSc1nn(C)c2nc3c(c(=O)n12)C(C)(C)Cc1ccccc1-3	i	0
Cn1ncc2c(=O)n(CC(=O)c3ccccc3)cnc21	i	-0.31
O=C(Nc1ccccc1Cl)Nc1cc(NC(=O)c2ccccc2Cl)ccc1N1CCCCC1	i	1.6
Cc1ccc(C(=O)NCc2ccccn2)cc1NC1=NC2CS(=O)(=O)CC2S1 (stereo unspecified)	i	-0.95
CCOC(=O)c1ccccc1NC(=O)c1nn(-c2ccc(F)cc2)c(=O)cc1OC	i	-0.36
CCOC(=O)c1cc(NC(=O)c2ccc(C)cc2Cl)ccc1N1CCOCC1	i	0.19
O=C(Nc1cc(F)c2nc(N3CCCCC3)ccc2c1)C1CCCC1	i	0.63

Next section:
SMILES	Choline anaer gr	Choline anaer gr early
Cc1cccc(-c2cnc(Nc3cccc(C(=O)NC4CCCCC4)c3)nc2)c1	i	-0.17
COc1ccc(OC)c(C2C3=C(CC(c4ccccc4O)CC3=O)Nc3onc(C)c32)c1 (stereo unspecified)	i	-1.42
CCOC(=O)c1[nH]c(C)c(S(=O)(=O)NC(C)(C)C)c1C	i	-0.69
Cn1c(=O)c2c(-c3ccc(Br)cc3)n3c(c2n(C)c1=O)C(/C=C/c1ccccc1)OCC3 (stereo unspecified)	i	-1.64
N#C/C(=C\c1ccc(O)c(O)c1)C(=O)NCc1ccccc1	i	0.47
